High-throughput results: PubChem BioAssay, ICCB-Longwood Screening Facility, Harvard Medical School
Choline anaer gr – blocks anaerobic gram-negative growth on choline | Gram-negative bacterium anaerobic choline minimal medium, absorbance growth; active compounds read low; many inactives read as strong as hits in the columns shown | calls only | actives 0.2% (n = 55,000) | AID 1963822;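 active = growth z-score on choline under -2 at 7 or 20 h with little or no fall on glycerol, limits in tiers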;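 also: stock transfer was 300 nL into about 50 µL; the organism is E. coli; final concentration not given here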
Choline anaer gr early – further read-out of Choline anaer gr, marked with its call; z-score; measured here: choline growth z-score, timepoint 1;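 score of optical density at 7 h as mean of two plates; lower means less growth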
An asterisk follows results filed as active; i = inactive; & = joins results of further samples.

SMILES	Choline anaer gr	Choline anaer gr early
CCCc1cc(C2CCCN2C(=O)Nc2ccsc2C(=O)OC)no1 (configuration not stated)	i	1.06
COc1ccccc1NC(=O)CC(=O)Nc1ccc2nc3n(c(=O)c2c1)CCCCC3	i	0.14
CC1(C)C(=O)NN(c2ccc(Cl)cc2)C1=O	i	-1.72
CCOC(=O)c1sc2nc(SCC(=O)N3CCCC3)n(Cc3ccc(C)cc3)c(=O)c2c1C	i	0.01
CCCN(CC1CC1)c1nc(C)nc(Nc2c(Cl)cc(Cl)cc2Cl)c1Cl	i	0.9&0.77
Cc1ccc(Nc2nc(-c3ccc(Br)cc3)cs2)nc1	i	1.04
c1ccc(-c2nnc3ccc(N4CCN(C(c5ccccc5)c5ccccc5)CC4)nn23)cc1	i	0.54
C=Cc1ccc(COc2cc3c(C(=O)OCC)c(CSc4ccccc4)n(C)c3cc2Br)cc1	i	0.66
CN1C(=O)Cc2cc(S(=O)(=O)N3CCCN(c4nc5cccnc5s4)CC3)ccc21	i	-0.35
O=S(=O)(NCC(c1ccccc1)N1CCCCC1)c1ccc(Cl)cc1 (configuration not stated)	i	-0.41
CCOC(=O)c1c(NC(=O)CSc2nnc(CNC(=O)c3cccc(C)c3)n2C)sc2c1CCCC2	i	0.99
COc1ccc(-c2noc(-c3cccnc3N(C)Cc3ccccc3)n2)cc1	i	0.53
CN(C)S(=O)(=O)N1CCCC(c2cc(-c3ccc(F)cc3)n[nH]2)C1 (configuration not stated)	i	0.16
CCc1c(C)sc2c1CCN(C(=O)Nc1ccccc1OC)C2c1ccccc1 (configuration not stated)	i	0.23
CCc1cc(Sc2ccc(NC(=O)CC(C)C)cc2)n2ncnc2n1	i	0.56
COC(=O)c1cc2ccsc2n1C(C)C(=O)Nc1ccc(OC)c(OC)c1 (configuration not stated)	i	-0.34
CCN1C(=O)C=CC1=O	i	0.09
CC(C)NC(=O)C1CCCN(C(=O)c2ccc(NS(=O)(=O)c3ccc(C(C)(C)C)cc3)cc2)C1 (configuration not stated)	i	-0.72
COc1ccc(-c2coc3cc(OCC(=O)O)ccc3c2=O)cc1OC	i	0.53
CC(=O)Nc1cccnc1-c1ccc(C(=O)Nc2ccc(C(C)C)cc2)cc1	i	-0.94

Brought forward from above: 6 compounds, then new ones.
SMILES	Choline anaer gr	Choline anaer gr early
CCc1cc(Sc2ccc(NC(=O)CC(C)C)cc2)n2ncnc2n1	i	0.56
COC(=O)c1cc2ccsc2n1C(C)C(=O)Nc1ccc(OC)c(OC)c1 (configuration not stated)	i	-0.34
CCN1C(=O)C=CC1=O	i	0.09
CC(C)NC(=O)C1CCCN(C(=O)c2ccc(NS(=O)(=O)c3ccc(C(C)(C)C)cc3)cc2)C1 (configuration not stated)	i	-0.72
COc1ccc(-c2coc3cc(OCC(=O)O)ccc3c2=O)cc1OC	i	0.53
CC(=O)Nc1cccnc1-c1ccc(C(=O)Nc2ccc(C(C)C)cc2)cc1	i	-0.94
CCN(Cc1ccccc1)c1ncc(NS(=O)(=O)c2ccc(C)cc2)cc1C(=O)O	i	0.1
Cc1ccc(-n2nc(N3CCCN(C(=O)c4ccc5nccnc5c4)CC3)ccc2=O)cc1C	i	0
COc1ccc(-c2nc3c(s2)CN(C(=O)Nc2cc(OC)ccc2OC)CC3)cc1	i	0.55
Fc1ccc(-c2noc(-c3ccc(N4CCC5(CC4)OCCO5)nc3)n2)cc1	i	-2.24
CCCC(=O)Nc1cc(S(=O)(=O)CC)ccc1OCc1cc(=O)n2oc(C)cc2n1	i	-0.21
O=C(COc1ncnc2onc(-c3ccccc3)c12)N1CCc2ccccc21	i	-0.22
COc1ccc(-c2cc3nccc(-c4cc(F)ccc4O)n3n2)cc1	i	0.64
O=C(N[C@H](CO)[C@H](O)c1ccc([N+](=O)[O-])cc1)C(Cl)Cl	i	-2.24&-0.16
O=C(Cn1c(=O)sc2cc(S(=O)(=O)N3CCOCC3)ccc21)N1CCCC1	i	-1.41
CCc1onc(C)c1C1CCCN1C(=O)c1cc2nc(C3CC3)cc(C(F)(F)F)n2n1 (configuration not stated)	i	0.57
CCCc1ccc(S(=O)(=O)N2CCCC2c2nc(-c3ccc(C)cc3)no2)cc1 (configuration not stated)	i	2.19
Cc1csc(-c2cc(S(=O)(=O)N3CCN(Cc4ccc5c(c4)OCO5)CC3)c(C)s2)n1	i	1.08
COc1cc(-c2nc(C(N)=O)c3[nH]c(=O)n(CC4CCCO4)c3n2)ccc1O (configuration not stated)	i	-1.65
c1ccc(-c2ccc(CNCc3cccs3)o2)cc1	i	-2.11
CCCN(CCC)C(=O)c1cc2c(=O)n3ccccc3nc2s1	i	-0.82
COc1ccc(CNC(=O)NC2CCN(S(=O)(=O)c3ccc(OC)cc3)CC2)cc1	i	-1.21
O=C(NCc1nnc(C(=O)Nc2ccc(F)cc2)s1)c1cccc(Cl)c1	i	-1.53
CCCCC12CN3CC(C)(CN(C1)C(=O)c1ccccc1C3=O)C2=O	i	0.6
CC1(C)CS(=O)(=O)N(c2ccc(C(=O)NCCc3c[nH]c4ccccc34)cc2)C1=O	i	0.2
O=C(NCCN1CCCCC1)c1ccc(Cn2c(SCc3ccccc3)nc3cccnc32)cc1	i	1.28

A second format for part of the listing above.
Molecule: O=C(Cn1c(=O)sc2cc(S(=O)(=O)N3CCOCC3)ccc21)N1CCCC1
  Choline anaer gr = i; Choline anaer gr early = -1.41
Molecule: CCc1onc(C)c1C1CCCN1C(=O)c1cc2nc(C3CC3)cc(C(F)(F)F)n2n1 (configuration not stated)
  Choline anaer gr = i; Choline anaer gr early = 0.57

Next section.
SMILES	Choline anaer gr	Choline anaer gr early
O=C(CN1CCN(Cc2ccccc2)C(=O)C1=O)N1CCOCC1	i	-1.11
COc1ccc(C2C3=C(CCCC3=O)Nc3onc(C)c32)cc1OC (configuration not stated)	i	0.61
CCN(CC)S(=O)(=O)c1ccc(Nc2nc(SC)nc3c2CCC3)cc1	i	1.41
COc1ccc(Cl)cc1Nc1c2c(nc3nc(C)nn13)CCC2	i	-0.87
O=C(Cn1c2ccccc2c2ncn(Cc3nc(C4CC4)no3)c(=O)c21)NCCC1=CCCCC1	i	-0.09
Cc1ccc2cc(-c3noc(CCC(=O)NC(C)(C)C)n3)c(=O)[nH]c2c1	i	-1.04
O=C(NCc1ccc2c(c1)OCO2)c1ccc(Oc2ccnc(-c3ccc(F)cc3)n2)cc1	i	-1.54
Nc1c(C(=O)N2CCCC2)sc(=S)n1Cc1ccccc1	i	-0.82
O=C(Nc1ccccc1)N1CCC(c2nc(-c3ccccc3)no2)CC1	i	2.4
Cc1ccc(C)c(CC2C(=O)Nc3ccc(C)cc32)c1 (configuration not stated)	i	-0.01
O=C(NC1CCN(Cc2ccccc2)CC1)C1CCN(c2ncc(-c3ccc(F)cc3)cn2)CC1	i	-2.08
COC(=O)c1c(-c2cccc(F)c2)noc1N1CCOCC1	i	-0.53
CCOc1ccc(-c2noc(-c3sccc3S(=O)(=O)N(C)c3ccccc3)n2)cc1	i	1.28
CC(C)OC(=O)CCC/C=C\C[C@@H]1[C@@H](/C=C/[C@@H](O)CCc2ccccc2)[C@H](O)C[C@@H]1O	i	1.03
Cc1noc(C)c1C(=O)N1CCCC1c1cc(C(C)C)no1 (configuration not stated)	i	0.9
COc1ccc(NC(=O)CCc2nc3sc4c(c3c(=O)[nH]2)CCC(C(C)(C)C)C4)c(OC)c1 (configuration not stated)	i	1.34
CCn1c(=O)sc2cc(S(=O)(=O)N3CCN(C(=O)c4cnccn4)CC3)ccc21	i	-0.13
Cc1sc(-c2noc(C(C)C)n2)cc1S(=O)(=O)N1CCC(C(=O)N2CCC(C)CC2)CC1	i	1.2
COc1cccc(C2C3=C(CC(C)(C)CC3=O)Nc3onc(C)c32)c1OC (configuration not stated)	i	-0.15
O=S(=O)(NC1CC1)c1cc(-c2nnc(C3CC3)o2)cs1	i	-0.33

Of the compounds above, 3 contain a tert-butyl group:
SMILES	Choline anaer gr	Choline anaer gr early
CC(C)NC(=O)C1CCCN(C(=O)c2ccc(NS(=O)(=O)c3ccc(C(C)(C)C)cc3)cc2)C1 (configuration not stated)	i	-0.72
Cc1ccc2cc(-c3noc(CCC(=O)NC(C)(C)C)n3)c(=O)[nH]c2c1	i	-1.04
COc1ccc(NC(=O)CCc2nc3sc4c(c3c(=O)[nH]2)CCC(C(C)(C)C)C4)c(OC)c1 (configuration not stated)	i	1.34

Next section
SMILES	Choline anaer gr	Choline anaer gr early
O=C(c1cccc(-n2nnc3cccnc32)c1)N1CCN(c2cccc(Cl)c2)CC1	i	-0.93
O=C(c1cccc(Br)c1)N1CCC(c2nc(-c3ccc(F)cc3)no2)CC1	i	1.76
CC(C)Cn1nc2c(S(=O)(=O)N3CCOCC3)cccn2c1=O	i	0.26
O=C(NCCc1cnc[nH]1)c1ccc(Cn2c(SCc3ccc(Cl)cc3)nc3ccncc32)cc1	i	-1.24
Cc1nc(-c2cc(S(=O)(=O)Nc3ccc(Br)cc3C)c(C)s2)cs1	i	1.1
Cc1nn(-c2ccc(N3CCOCC3)nn2)c(C)c1CCC(=O)N1CCN(c2ccccn2)CC1	i	0.63
Cc1ccc(CNC(=O)c2cc(C)nc3c2c(=O)n(C)c(=O)n3C)cc1	i	1.08
O=C(NC1CCCC1)c1ccc(-c2nc(-c3ccccc3)no2)cc1	i	-1.28
O=C(CCC1CCCC1)N1CCN(c2ccc(N3CCCC3)nn2)CC1	i	-1.37
Cn1c(=O)c(=O)n(C)c2cc(S(=O)(=O)N3CCN(c4ccccn4)CC3)ccc21	i	-0.65
O=C1Nc2ccccc2C1Cc1ccccc1F (configuration not stated)	i	0.1
O=C(Cn1c(=O)c(C(F)(F)F)nc2ccccc21)Nc1cccc(Cl)c1	i	0.45
CCS(=O)(=O)c1nc2ccc(NS(=O)(=O)c3ccc(OC)c(Cl)c3)cc2s1	i	-0.42
COc1ccc(N2C(=O)c3cc4ccsc4n3CC2(C)C(=O)NC2CCCC2)cc1OC (configuration not stated)	i	0.06
COc1ccc(NC(=O)c2nnc(CSCC(=O)NCc3ccccc3)s2)cc1	i	-0.88
CCOc1ccc(NC(=O)c2cc(=O)c3cc(Cl)ccc3o2)c2cccnc12	i	0.34
Cc1ccc(NC(=O)N2CCc3cc(S(=O)(=O)N4CCC(C)CC4)ccc32)cc1F	i	-0.59
O=C(Nc1ccccc1Cl)c1cc(=O)c2ccccc2o1	i	1.4
COc1ccc2cc3c(N)nn(C(=O)Cc4ccccc4OC)c3nc2c1	i	0.97
COC(=O)c1c(C)[nH]c(C(=O)N2CCC(CC(=O)NCc3cccc(Br)c3)CC2)c1C	i	-0.43
CN(C)C(=O)c1ccc2c(c1)nc(CN1CCN(S(=O)(=O)c3cccc4nsnc34)CC1)n2C	i	0.41
Cc1ccc2nc(-c3ccc(NC(=O)c4csnn4)cc3)sc2c1	i	-0.76
Cc1ccc(S(=O)(=O)NC(C(=O)N2CCC(c3nc(-c4ccccc4)no3)CC2)C(C)C)cc1 (configuration not stated)	i	-1.07
COc1ccc(C(=O)N2CCN(S(=O)(=O)c3ccc4c(c3)NC(=O)CO4)CC2)c(OC)c1	i	0.64
Cc1sc(-c2nc(C(C)C)cs2)cc1S(=O)(=O)NCc1ccccc1	i	0.81
CCS(=O)(=O)N1CCCN(c2ccc(=O)n(-c3ccc(F)cc3)n2)CC1	i	0.41
CCC(=O)Nc1cnc(N2CCN(c3ccc(Cl)cc3)CC2)c(C(=O)O)c1	i	-0.56
CCN(CCCNC(=O)CCc1nc2sc3c(c2c(=O)[nH]1)CCC(C(C)(C)C)C3)c1ccccc1 (configuration not stated)	i	1.74
Cc1ccc(-c2noc(Cn3cnc4c(cnn4-c4ccccc4)c3=O)n2)cc1	i	-0.83
O=S(=O)(Nc1cccc(-c2nnc(-c3ccccc3)o2)c1)c1cccc(Cl)c1	i	0.54
CCOC(=O)c1[nH]c(C)c(CCC(=O)Nc2c(C)n(C)n(-c3ccccc3)c2=O)c1C	i	-0.27
O=C(NCc1ccc2c(c1)OCO2)c1cc(-c2ccncc2)n[nH]1	i	-0.13
O=C(Cn1cnc2sc3c(c2c1=O)CCCC3)Nc1cccc(Cl)c1	i	0.23
CC(C)n1c(=O)sc2cc(NS(=O)(=O)c3ccc4c(c3)n(C)c(=O)n4C)ccc21	i	-1.71
Cn1nnc2cc(-c3noc(C4CCCO4)n3)ccc21 (configuration not stated)	i	-1.76
Cc1ccc(Cl)cc1NS(=O)(=O)c1cc(-c2nc(C(C)C)cs2)cs1	i	1.56
COc1ccccc1N1CCN(CC(O)c2c[nH]c3ccc(F)cc23)CC1 (configuration not stated)	i	-0.29
O=C(CSc1ccccc1)N1CCN(Cc2cc(=O)n3nc(-c4ccc(F)cc4)sc3n2)CC1	i	-0.64
CCCc1cc(C2CCCN2C(=O)NCC(=O)OC)no1 (configuration not stated)	i	0.47
Cc1cc(C)c(C(=O)N2CCC(CC(=O)N3CCC4(CC3)OCCO4)CC2)[nH]1	i	-0.53
COc1ccccc1C(=O)N(CCN(C)C)c1nc2c(Cl)cccc2s1	i	1.17
COC(=O)c1ccc(NC(=O)c2sc3nc(C)cc(=O)n3c2C(=O)Nc2ccccc2)cc1	i	-0.58
CNC(=O)c1c(-c2ccc(F)cc2)nc2n1CCS2(=O)=O	i	-0.86
Cc1cc(N2CCCCC2)n2nc(CN3CCC(N4CCCCC4)CC3)nc2n1	i	0.76
CN1CCc2c(sc3c2CN(C(=O)Nc2ccccc2)C(c2ccccc2)c2cccn2-3)C1 (configuration not stated)	i	0.25
Cc1nc(C2CCN(Cc3cc(F)ccc3F)CC2)no1	i	-2.11
O=S(=O)(NCCn1c(-c2ccc(F)cc2)nc2cccnc21)c1ccccc1	i	-0.54
CCc1cc(Sc2ccccc2N)n2ncnc2n1	i	0.45
CN(C)S(=O)(=O)Nc1ccc(N2CCC(CCN3CCOCC3)CC2)c(C(=O)O)c1	i	0.45
CCN(CC)c1cc(C(=O)O)c2cc(NC(=O)CC(C)C)ccc2n1	i	-0.25
Cc1cccc(-c2nc3ccccc3c3nnc(SC(C)C(=O)NC4CC4)n23)c1 (configuration not stated)	i	0.58

Only part of the results is shown (hit frequency here may not be typical).
